High-throughput results deposited in PubChem by National Center for Advancing Translational Sciences (NCATS).
PINK1 expr mod – modulators of PINK1 expression. PINK1 immunofluorescence, high-content cytometry, 24 h. Potency, µM (series often up to 76.6 µM), inactives show top-dose activation (PINK1 increase), actives largely listed as activators. 410,000 tested, 0.2% active. AID 624263; active = well fitted activation curve with a large enough effect; inconclusive = small, poorly fitted or top-dose-only effect; inactive = flat fitted curve, though single readings scatter; cell line not stated here;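 further: potency means the concentration at half of the fitted maximal effect; % of control where 0% means no effect; nearly all actives have a fitted effect of over 65% in size; a mitochondrial uncoupler was the plate control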
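Decision-based qHTS: stable cells, 24 h exposure to five compound concentrations, CCCP as control. Fixed cells stained for PINK1 plus nuclear, mitochondrial and cell markers, cytometer read.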
TRPML1 blocker – blocks the human TRPML1 channel | TRPML1-inducible cells, Ca2+ dye fluorescence, FDSS; stronger effect = lower value; inhibition of EC80 agonist-evoked calcium signal | activity change, negative = inhibition, % (no concentration beside the values) | 390,000 tested, 0.02% active; in the data active means activity change below about -50%; inconclusive means about -30% to -50%; inactive means above about -30%;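 further: stimulus is agonist 54-4 at its EC80 concentration; on the % scale 0 is the no-effect control and ±100 the full control effect; compound concentration not given in the record; the text of the record puts the active cut at -80%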
Target sequence (Q9GZU1 whole entry, looked up): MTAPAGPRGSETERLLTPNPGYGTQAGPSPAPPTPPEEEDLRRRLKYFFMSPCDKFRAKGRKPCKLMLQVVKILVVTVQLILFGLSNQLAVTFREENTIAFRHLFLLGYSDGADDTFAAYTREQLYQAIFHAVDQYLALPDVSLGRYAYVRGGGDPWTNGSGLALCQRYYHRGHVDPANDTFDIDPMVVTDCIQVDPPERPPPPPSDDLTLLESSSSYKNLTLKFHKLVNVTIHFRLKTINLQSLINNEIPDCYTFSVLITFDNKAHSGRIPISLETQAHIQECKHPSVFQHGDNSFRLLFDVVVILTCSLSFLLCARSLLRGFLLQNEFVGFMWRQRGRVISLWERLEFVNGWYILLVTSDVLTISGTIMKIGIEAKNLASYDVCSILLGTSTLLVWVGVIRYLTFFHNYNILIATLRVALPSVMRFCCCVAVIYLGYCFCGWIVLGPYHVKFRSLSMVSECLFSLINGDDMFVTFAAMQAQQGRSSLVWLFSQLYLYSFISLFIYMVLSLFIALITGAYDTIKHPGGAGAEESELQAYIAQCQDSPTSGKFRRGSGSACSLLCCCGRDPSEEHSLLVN
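Tet-induced TRPML1-DL cells loaded with Ca8 no-wash calcium dye were read kinetically on FDSS. Compound addition was followed by EC80 agonist 54-4 (4 uM final); inhibition was read over 110 s.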
D2 agonist – activates the human D2 dopamine receptor. P14416. 360,000 tested, 0.084% active. DiscoveRx PathHunter D2 beta-arrestin, luminescence, 90 min; 100% = 57 uM dopamine signal. activation, % (no concentration beside the values). AID 624465; in the data active = activation above about 40%; inconclusive = about 15% to 40%; inactive = below about 15%; further: compound concentration not given in the record; the text of the record calls up to 30% inactive
Target sequence (P14416 whole entry, looked up): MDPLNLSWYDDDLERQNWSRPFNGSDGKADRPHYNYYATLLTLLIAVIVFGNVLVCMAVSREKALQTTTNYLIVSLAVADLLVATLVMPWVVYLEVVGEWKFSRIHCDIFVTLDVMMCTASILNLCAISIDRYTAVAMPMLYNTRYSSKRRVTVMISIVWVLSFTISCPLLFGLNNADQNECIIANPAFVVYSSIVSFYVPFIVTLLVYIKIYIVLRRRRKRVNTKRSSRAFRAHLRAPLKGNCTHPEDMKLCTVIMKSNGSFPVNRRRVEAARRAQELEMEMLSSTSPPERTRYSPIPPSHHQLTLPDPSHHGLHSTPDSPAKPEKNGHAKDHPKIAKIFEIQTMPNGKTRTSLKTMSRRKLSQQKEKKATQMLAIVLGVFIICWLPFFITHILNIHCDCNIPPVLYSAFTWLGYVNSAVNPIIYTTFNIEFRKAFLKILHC
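Agonist mode: compounds alone added to overnight-plated D2 PathHunter cells for 90 min at 37 C, with 57 uM final dopamine (EC100) defining full response. Beta-arrestin recruitment detected by chemiluminescent reagent, read after 1 h at ambient temperature.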
CtBP-E1A blk – blocks the CtBP interaction with E1A | AlphaScreen GST-E1A/His-CtBP binding, 1536-well; stronger effect = lower value; control for the full effect not named in the record | activity change, % (concentration not given with the values) | 340,000 tested, 0.49% active | AID 651724; in the data active means activity change below about -65%; inconclusive means about -30% to -65%; inactive means above about -30%; further: on the % scale 0 is the no-effect control and ±100 the full control effect
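In 5 uL wells, 23 nL compound meets equimolar GST-E1A and His-CtBP (5X stock 125 nM each) for 2 h, 37 °C. Beads (5X, 50 ug/mL) then 1 h, 37 °C, dark.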
TRPML1 agonist – human mucolipin-1 channel agonism; 410,000 tested, 0.12% active; AID 624414; activation, % (test concentration not listed); TRPML1-expressing cells, Ca2+ dye fluorescence, FDSS; host cell line not named in the record; reference of the full effect not given here; in the data active = activation above about 50%; inconclusive = about 30% to 50%; inactive = below about 30%; further: 0% is about no effect; the text of the record puts the active cut at 80%
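Cells: TRPML1-DL, 1X Tet inducer, ~16 h at 37 degrees C/5% CO2. Dye: ABD Ca8 no-wash + quencher, 45-90 min RT. Read: 10 s baseline, compound add, 110 s agonist phase; 54-4 EC80 (4uM final), 110 s antagonist phase.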
Six1-Eya2 inh – inhibitors of human Six1/Eya2 interaction; activity change, % (concentration not given with the values); Q15475+O00167; AlphaScreen GST-Six1/His-Eya2 binding, biochemical; stronger effect = lower value; control for the full effect not named in the record; 360,000 tested, 0.56% active; in the data active = activity change below about -65%; inconclusive = about -30% to -65%; inactive = above about -30%; further: on the % scale 0 is the no-effect control and ±100 the full control effect
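Six1/Eya2 binding was read as AlphaScreen signal after compounds were pinned into GST-Six1 plus His-tagged Eya2 (5X stock 250/500 nM) in pH 8.0 Tris/NaCl/TCEP buffer, beads added, then incubated 1 h, 37 C, dark.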
Starred values were filed as active, the others as inactive; & = joins results of further samples.

`Cc1ccccc1-n1nc(C)c2cc(C(=O)N3CCN(S(=O)(=O)c4ccc(Cl)cc4)CC3)sc21` gave PINK1 expr mod -1.3%, TRPML1 blocker 27, D2 agonist -2.0, CtBP-E1A blk -5, TRPML1 agonist -0.2 and Six1-Eya2 inh -11.
CCOC(=O)Cn1nnnc1C(CC)N(Cc1cccs1)Cc1cc2ccc(OC)cc2[nH]c1=O (centres undefined) was read as PINK1 expr mod -1.2%, TRPML1 blocker 1, D2 agonist -1.9, CtBP-E1A blk 0, TRPML1 agonist -0.7 and Six1-Eya2 inh -10.
O=C(c1ccco1)N1CCCC(c2nc3c(nnn3Cc3ccccc3)c(=O)[nH]2)C1 (centres undefined) was read as PINK1 expr mod 0.8%, TRPML1 blocker 6, D2 agonist -7.6, CtBP-E1A blk 20, TRPML1 agonist -0.9 and Six1-Eya2 inh 7.
COC(=O)[C@@H]1C2CCC(C(=O)Nc3ccccc3)(CC2)[C@@H]1C(=O)OC was read as PINK1 expr mod -1.1%, TRPML1 blocker 32, D2 agonist -1.1, CtBP-E1A blk 0, TRPML1 agonist 0.3 and Six1-Eya2 inh 7.
For O=C(CCCC(=O)Nc1ccccc1Br)N/N=C/c1c(F)cccc1Cl the results were PINK1 expr mod -0.6%, TRPML1 blocker -3, D2 agonist -0.6, CtBP-E1A blk -3, TRPML1 agonist -0.2 and Six1-Eya2 inh -3.
Screening O=C(NC1=NCCS1)C1CC(=O)N(c2ccccc2)C1 (centres undefined) returned PINK1 expr mod -1.1%, TRPML1 blocker 1, D2 agonist -3.8, CtBP-E1A blk 8, TRPML1 agonist -0.9 and Six1-Eya2 inh 0.
`COc1ccc(C2N=C(Nc3ccc(C)cc3)Nc3nc(C)cc(=O)n32)cc1` (centres undefined) gave PINK1 expr mod 1.7%, TRPML1 blocker -10, D2 agonist -1.8, CtBP-E1A blk -4, TRPML1 agonist -0.8 and Six1-Eya2 inh -1.
Cc1cccc(NC(=O)CC2Nc3cccc4cccc(c34)NC2=O)c1 (centres undefined) was read as PINK1 expr mod inconclusive, TRPML1 blocker 22&6, D2 agonist 6.3, CtBP-E1A blk -3, TRPML1 agonist 0.0&0.3 and Six1-Eya2 inh -12.
Screening COc1ccc(NC(=O)CSc2ccc(-c3cccs3)nn2)cc1 returned PINK1 expr mod 0.1%, TRPML1 blocker inconclusive and TRPML1 agonist 2.0.
`O=c1n(-c2ccccc2)c(=O)n(Cc2ccccn2)n1Cc1ccccn1` gave PINK1 expr mod 7.2%, TRPML1 blocker 2, D2 agonist 2.8, CtBP-E1A blk 3, TRPML1 agonist -0.2 and Six1-Eya2 inh 5.
CCOC(=O)CSc1nc(N)cc(=O)[nH]1 was read as PINK1 expr mod 4.4%, TRPML1 blocker 8, D2 agonist -10, CtBP-E1A blk 1, TRPML1 agonist -0.5 and Six1-Eya2 inh -5.
`COc1ccc(CNC(=O)CCC(=O)N2CC(C)Oc3ccccc32)cc1` (centres undefined) gave PINK1 expr mod -0.8%, TRPML1 blocker -4, D2 agonist -4.4, CtBP-E1A blk 6, TRPML1 agonist -0.1 and Six1-Eya2 inh -4.
`COc1ccc(C(=O)Nc2cnc3sc(C)nn3c2=O)cc1` gave PINK1 expr mod 0.0%, TRPML1 blocker -8, D2 agonist -5.8, CtBP-E1A blk -3, TRPML1 agonist 0.7 and Six1-Eya2 inh -9.
Screening COc1ccc(-c2cc3ccc(O)c(CN4CCCCC4C)c3oc2=O)cc1OC (centres undefined) returned PINK1 expr mod 0.8%, TRPML1 blocker -12 and TRPML1 agonist 8.5.
CC(Nc1cc(=O)n(C)c(=O)[nH]1)c1ccccc1 (centres undefined) was read as PINK1 expr mod 0.9%, TRPML1 blocker -6, D2 agonist -4.3, CtBP-E1A blk 4, TRPML1 agonist -0.2 and Six1-Eya2 inh 30.
CC1Cc2[nH]c(=S)[nH]c(=O)c2C(C)O1 (centres undefined) was read as PINK1 expr mod 0.6%, CtBP-E1A blk 1, TRPML1 agonist -0.5 and Six1-Eya2 inh -6.
`O=C1C[C@@H]2c3c(cccc3CN1Cc1ccc(Br)cc1)C[C@@H](O)[C@H]2O` gave PINK1 expr mod -0.4%, TRPML1 blocker -19, D2 agonist 0.9, TRPML1 agonist -0.3&0.1 and Six1-Eya2 inh 1.
`COc1ccccc1NC(=O)C1CCCN(C(=O)Nc2ccc(F)cc2)C1` (centres undefined) gave PINK1 expr mod 5.7%, TRPML1 blocker -6, D2 agonist -5.2, CtBP-E1A blk 0, TRPML1 agonist -1.3 and Six1-Eya2 inh 4.
`CC(=O)c1cccc(NC(=O)Nc2cccs2)c1` gave PINK1 expr mod -2.5%, TRPML1 blocker -8, D2 agonist -2.4, CtBP-E1A blk -8, TRPML1 agonist 1.7 and Six1-Eya2 inh -4.
For COc1ccc(NC(=O)N2CCC(C(=O)c3ccc4c(c3)OCCO4)CC2)cc1 the results were PINK1 expr mod 2.8%, TRPML1 blocker 10, D2 agonist -2.4, CtBP-E1A blk -3, TRPML1 agonist 0.4 and Six1-Eya2 inh -7.

Four compounds picked at random from the list so far, as already listed:
`CC(=O)c1cccc(NC(=O)Nc2cccs2)c1` gave PINK1 expr mod -2.5%, TRPML1 blocker -8, D2 agonist -2.4, CtBP-E1A blk -8, TRPML1 agonist 1.7 and Six1-Eya2 inh -4.
Screening COc1ccc(-c2cc3ccc(O)c(CN4CCCCC4C)c3oc2=O)cc1OC (centres undefined) returned PINK1 expr mod 0.8%, TRPML1 blocker -12 and TRPML1 agonist 8.5.
`COc1ccc(C(=O)Nc2cnc3sc(C)nn3c2=O)cc1` gave PINK1 expr mod 0.0%, TRPML1 blocker -8, D2 agonist -5.8, CtBP-E1A blk -3, TRPML1 agonist 0.7 and Six1-Eya2 inh -9.
For COc1ccc(NC(=O)N2CCC(C(=O)c3ccc4c(c3)OCCO4)CC2)cc1 the results were PINK1 expr mod 2.8%, TRPML1 blocker 10, D2 agonist -2.4, CtBP-E1A blk -3, TRPML1 agonist 0.4 and Six1-Eya2 inh -7.

Next part.
`CC(C)(C)C1CCc2nc(NC(=O)Cc3cn4ccsc4n3)sc2C1` (centres undefined) gave PINK1 expr mod 0.5%, TRPML1 blocker 24, D2 agonist -0.7, CtBP-E1A blk 16&-10, TRPML1 agonist -0.1 and Six1-Eya2 inh -19.
CC1CCN(C(=O)c2cccc(S(=O)(=O)N3CCCc4ccccc43)c2)CC1 was read as PINK1 expr mod -2.3%, TRPML1 blocker 14, D2 agonist -3.5, CtBP-E1A blk 7, TRPML1 agonist 4.2 and Six1-Eya2 inh -2.
`COc1cccc(-c2cccc(NC(=O)C3CCN(Cc4cccc(C)n4)CC3)c2)c1` gave PINK1 expr mod -2.6%, TRPML1 blocker -3, D2 agonist -6.5, CtBP-E1A blk 5, TRPML1 agonist -0.3 and Six1-Eya2 inh -4.
Screening COCCn1c(=S)[nH]c2cc(C(=O)NCCc3ccccc3)ccc2c1=O returned PINK1 expr mod 2.8%, TRPML1 blocker -3, D2 agonist 3.3, CtBP-E1A blk 6, TRPML1 agonist 0.8 and Six1-Eya2 inh 5.
For COc1ccc(NC(=O)COC(C)=O)cc1OC the results were PINK1 expr mod 1.7%, TRPML1 blocker 1, D2 agonist -6.4, CtBP-E1A blk 1, TRPML1 agonist -0.5 and Six1-Eya2 inh -7.
Screening COc1ccc([C@@H](NC(=O)OC(C)(C)C)C(=O)OC(C)(C)C)cc1 returned PINK1 expr mod 0.4%, TRPML1 blocker 10, D2 agonist -4.5, CtBP-E1A blk 4, TRPML1 agonist -1.2 and Six1-Eya2 inh 0.
Screening CCc1cccc(C)c1Nc1c(-c2ccc(N(C)C)cc2)nc2cnccn12 returned PINK1 expr mod 2.8%, TRPML1 blocker 10 and TRPML1 agonist -0.2.
For CCn1cc(C(=O)NCCc2ccc(Cl)cc2)c(=O)c2cc(S(=O)(=O)N3CCC(C)CC3)ccc21 the results were PINK1 expr mod 2.2%, TRPML1 blocker -17 and TRPML1 agonist -0.7.
Screening COc1ccc2c(=O)c3c(=O)n(-c4ccccc4)c(-c4ccco4)nc3oc2c1 returned PINK1 expr mod 12%, TRPML1 blocker -6, D2 agonist 0.7, CtBP-E1A blk -17, TRPML1 agonist -0.7 and Six1-Eya2 inh 5.
COc1ccc(CCN2C(=O)CSC2c2ccc(OC)c(OC)c2)cc1OC (centres undefined) was read as PINK1 expr mod 1.2%, TRPML1 blocker 0, D2 agonist -16, CtBP-E1A blk -21, TRPML1 agonist 1.4 and Six1-Eya2 inh -1.
`CCOC(=O)CNC(=O)c1ccc(C)cc1` gave PINK1 expr mod 2.5%, TRPML1 blocker -8, D2 agonist -3.3, CtBP-E1A blk 16, TRPML1 agonist 0.1 and Six1-Eya2 inh 14.
`O=C(CN1CCN(CC(=O)Nc2ccccc2Cl)CC1)Nc1ccc(F)c(F)c1` gave PINK1 expr mod -0.8%, TRPML1 blocker 19, D2 agonist -1.9, TRPML1 agonist 0.5 and Six1-Eya2 inh 1.
Cc1cc(C)cc(NC(=O)Cn2nnc(-c3nc(-c4ccncc4)no3)c2N)c1 was read as PINK1 expr mod 5.4%, TRPML1 blocker 1 and TRPML1 agonist 0.5.
CCN1C(C(=O)c2ccccc2)=C(OC(=O)c2ccc(Cl)cc2)c2ccccc2S1(=O)=O was read as PINK1 expr mod 2.4%, TRPML1 blocker 15 and TRPML1 agonist 1.4.
`O=C(/C=C/c1cccs1)N1CCN(c2ccccc2)CC1` gave PINK1 expr mod 1.9%, TRPML1 blocker -5, D2 agonist -3.5, CtBP-E1A blk -13, TRPML1 agonist -0.9 and Six1-Eya2 inh -11.
`COc1ccccc1OC(C)C(=O)N1CC(=O)Nc2ccccc21` (centres undefined) gave PINK1 expr mod -2.4%, TRPML1 blocker -7, D2 agonist 3.4, CtBP-E1A blk 2, TRPML1 agonist 0.2 and Six1-Eya2 inh 4.
For COc1ccc(-c2n[nH]c3c2C(c2ccccn2)N(C)C3=O)cc1 (centres undefined) the results were PINK1 expr mod 1.3%, TRPML1 blocker 21 and TRPML1 agonist 0.3.
CCOC(=O)C1=C(C)NC(=O)NC1c1c(O)ccc2ccccc12 (centres undefined) was read as PINK1 expr mod 0.1%, TRPML1 blocker -10, D2 agonist -7.0, CtBP-E1A blk -3, TRPML1 agonist -1.2 and Six1-Eya2 inh 5.
For CCC(=O)Nc1ccc(S(=O)(=O)c2ccc(NC(=O)CC)cc2)cc1 the results were PINK1 expr mod 2.0%, TRPML1 blocker 8, D2 agonist -1.4, CtBP-E1A blk 3, TRPML1 agonist -0.3 and Six1-Eya2 inh 1.
COc1ccc2cc3cc(C(=O)N4CCCCCC4)oc3nc2c1 was read as PINK1 expr mod 2.8%, TRPML1 blocker -9, D2 agonist 0.1, TRPML1 agonist 0.8 and Six1-Eya2 inh 2.
CN(CC(=O)NC(=O)NC1CCCCC1)c1ccccc1 was read as PINK1 expr mod 6.0%, TRPML1 blocker 5, D2 agonist 3.6, TRPML1 agonist -0.7 and Six1-Eya2 inh -6.
For c1cncc(-c2nnc(SCc3nc4ccccc4[nH]3)o2)c1 the results were PINK1 expr mod -1.2%, TRPML1 blocker 15, D2 agonist 0.1, CtBP-E1A blk -1, TRPML1 agonist -1.2 and Six1-Eya2 inh 0.
